Compound activity deposited in PubChem by National Center for Advancing Translational Sciences (NCATS).
PINK1 modulator: modulators of PINK1 expression. AID 624263. Potency, µM (series often up to 76.6 µM), without a hit: top-dose activation (PINK1 increase), actives largely listed as activators. hit rate 0.2% among 410,000. PINK1 immunofluorescence, high-content cytometry, 24 h; active = well fitted activation curve with a large enough effect; inconclusive = small, poorly fitted or top-dose-only effect; inactive = flat fitted curve, though single readings scatter; cell line not stated here;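 also: potency is read from the fitted curve at half-maximal effect; % of control where 0% means no effect; nearly all actives have a fitted effect of over 65% in size; a mitochondrial uncoupler was the plate control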
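Cells are seeded, rested 12 hours, then given compound at five concentrations or DMSO for 24 hours. After fixation, blocking and antibody staining, PINK1 amount and mitochondrial localization are scored; CCCP serves as control.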
TRPML1 ag: agonists of human TRPML1 channel; TRPML1-expressing cells, Ca2+ dye fluorescence, FDSS; host cell line not named in the record; reference of the full effect not given here; activation, % (test concentration not listed); hit rate 0.12% among 410,000; in the data active = activation above about 50%; inconclusive = about 30% to 50%; inactive = below about 30%; also: 0% is about no effect; the text of the record puts the active cut at 80%
Target sequence (Q9GZU1 whole entry, looked up): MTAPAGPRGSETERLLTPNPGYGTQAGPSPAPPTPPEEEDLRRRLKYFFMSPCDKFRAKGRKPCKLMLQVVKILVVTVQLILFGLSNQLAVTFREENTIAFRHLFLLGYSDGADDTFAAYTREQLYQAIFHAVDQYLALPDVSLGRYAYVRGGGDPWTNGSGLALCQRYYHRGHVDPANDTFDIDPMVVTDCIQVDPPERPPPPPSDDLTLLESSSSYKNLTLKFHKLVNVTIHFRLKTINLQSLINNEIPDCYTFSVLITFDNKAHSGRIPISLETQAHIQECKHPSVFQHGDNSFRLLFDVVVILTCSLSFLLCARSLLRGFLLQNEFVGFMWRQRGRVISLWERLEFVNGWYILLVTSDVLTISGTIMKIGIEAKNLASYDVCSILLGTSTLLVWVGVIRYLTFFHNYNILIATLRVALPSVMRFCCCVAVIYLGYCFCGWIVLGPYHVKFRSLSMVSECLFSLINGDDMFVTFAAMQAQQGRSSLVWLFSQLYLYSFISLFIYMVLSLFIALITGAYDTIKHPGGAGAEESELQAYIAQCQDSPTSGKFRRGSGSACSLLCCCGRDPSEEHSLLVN
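Agonist activity was taken from a 110 s kinetic Ca2+ dye read on the FDSS after pinning compounds onto TRPML1-DL cells. The cells were seeded at 1,500/well with Tet inducer, incubated about 16 h, then dye-loaded at room temperature.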
TRPML1 blocker: inhibitors of human TRPML1 channel; Q9GZU1; TRPML1-inducible cells, Ca2+ dye fluorescence, FDSS; active compounds read low; inhibition of EC80 agonist-evoked calcium signal; activity change, negative = inhibition, % (concentration not given with the values); hit rate 0.02% among 390,000; AID 624415; in the data active means activity change below about -50%; inconclusive means about -30% to -50%; inactive means above about -30%;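 also: stimulus is agonist 54-4 at its EC80 concentration; % is scaled to controls: 0 for no effect and ±100 for the full control effect; the text of the record puts the active cut at -80%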
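Tet-induced TRPML1-DL cells loaded with Ca8 no-wash calcium dye were read kinetically on FDSS. Compound addition was followed by EC80 agonist 54-4 (4 uM final); inhibition was read over 110 s.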
Sfp PPTase inh: inhibitors of Bacillus subtilis Sfp phosphopantetheinyl transferase. Q9F4F7. Biochemical Sfp PPTase activity, qHTS. Potency, µM, inactives show max response, negative = inhibition, most hits filed as inhibitors. hit rate 3.5% among 310,000. AID 1490; active = well fitted inhibition curve with a large enough effect; inconclusive = small, poorly fitted or top-dose-only effect, or another doubt; inactive = no such curve, though single readings can be large or run the other way;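 also: the enzyme is Sfp with the accession as filed and its product quenches rhodamine fluorescence; potency is read from the fitted curve at half-maximal effect; 0% = enzyme reaction without inhibitor and -100% = no enzyme wells; top concentration of the series not given in the record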
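Reaction rates are the 30-min fluorescence difference (ex 525, em 598 nm) in wells containing 15 nM Sfp, 5 uM rhodamine-CoA and 12.5 uM BHQ-2-YbbR at pH 7.6 with 10 mM MgCl2.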
TRPV1 PAM: enhances activation of the human vanilloid receptor TRPV1; Q8NER1; TRPV1-expressing cells, Fluo-8 calcium influx, capsaicin EC20 potentiation; host cell line not named in the record; control for the full effect not named in the record; potentiation, % at 8.33 µM; hit rate 0.02% among 320,000; AID 540277; active means potentiation above 80%; inconclusive means 30% to 80%; inactive means below 30%; also: 0% is about no effect
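TRPV1-expressing cells were cultured overnight at 35.5C and loaded with Fluo-8 calcium dye for 40 to 90 min at room temperature. After a 10 s baseline, compound was added and calcium influx was read kinetically for 3 min (ex 480/em 520 nm).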
ClpP mod: qHTS Assay for Activators of ClpP | ATP-dependent Clp protease proteolytic subunit (Bacillus subtilis (strain 168)), P80244 | purified B. subtilis ClpP, FRET peptide cleavage, 20 min | Potency, µM (highest dose often 57.5 µM), for the others: at the top dose activity change, negative = active | hit rate 1.9% among 340,000; active = well fitted falling curve with a large enough effect; inconclusive = small, poorly fitted or top-dose-only effect; inactive = no such curve, though single readings can be large or run the other way; also: potency is read from the fitted curve at half-maximal effect; the source files actives as falling curves though it sought activators and does not explain the sign; nearly all actives have a fitted effect of over 65% in size; many hits overshoot -100%
Target sequence (P80244 whole entry, looked up): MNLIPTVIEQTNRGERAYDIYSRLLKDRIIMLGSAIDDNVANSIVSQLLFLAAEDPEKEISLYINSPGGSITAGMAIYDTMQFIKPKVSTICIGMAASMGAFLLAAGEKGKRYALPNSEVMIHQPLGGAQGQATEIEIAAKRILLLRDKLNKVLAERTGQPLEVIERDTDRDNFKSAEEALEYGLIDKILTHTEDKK
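FRET quenching reversal measured ClpP activation: 10 microg/mL B. subtilis ClpP at pH 8 with the FRET-FV decapeptide, read at 430 nm after 320 nm excitation. The 20-min minus 0-min signal was scaled between DMSO/no-enzyme wells and ADEP (5.8 microM final).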
Menin MLL FP FL: displaces fluorescein MLL peptide from human menin; Fluorescence polarization, fluorescein-MLL peptide displacement from menin; AID 1766; 290,000 tested, under 10 active; FP activity change, % at 61.4 µM; inconclusive = falling polarisation curve, or a change in total fluorescence; inactive = total fluorescence flat and polarisation flat or rising; no compound was filed as active; the % refers to the polarisation; negative = inhibition;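 also: % of control where 0% means no effect; inhibitors lower the polarisation; unlabelled MLL peptide was the positive control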
* hit, by the source's call; & = joins results of further samples; [ ] = remark or other dose. Hits appear at their usual frequency (roughly 4.4% active in at least one column).

`COc1cc(-c2cc(C(=O)Nc3ccncc3)c3ccccc3n2)cc(OC)c1OC` gave PINK1 modulator 2.3%, TRPML1 ag 0.3, TRPML1 blocker -2, TRPV1 PAM -21 and ClpP mod 0.4%.
Screening Cc1cc(C)cc(Oc2c(C(F)(F)F)oc3cc(OCC(=O)NC4CCCCC4)ccc3c2=O)c1 returned PINK1 modulator 1.1%, TRPML1 ag 1.3, TRPML1 blocker 2 and ClpP mod -1.3%.
Cc1cc(Cl)ccc1OCC(=O)Nc1ccccc1N1CCOCC1 was read as PINK1 modulator 8.9%, TRPML1 ag 75*, TRPML1 blocker -12, Sfp PPTase inh -9%, TRPV1 PAM -4, ClpP mod -8.9% and Menin MLL FP FL 3.9.
`O=C(Cc1ccccc1)NNC(=O)c1cccs1` gave PINK1 modulator 0.4%, TRPML1 ag -0.4, TRPML1 blocker 12, Sfp PPTase inh 9%, TRPV1 PAM 5, ClpP mod 0.0% and Menin MLL FP FL 2.8.
Screening CC1(C)C(=O)OC(c2c(F)c(F)c(F)c(F)c2F)C2(CCCCC2)C1=O (stereo not given) returned PINK1 modulator 0.6%, TRPML1 ag 0.2, TRPML1 blocker 29, Sfp PPTase inh 22%, TRPV1 PAM -17, ClpP mod 28µM* and Menin MLL FP FL -2.7.
O=C(O)CSc1nnc(Cn2nnc3ccccc32)n1CCc1ccccc1 was read as PINK1 modulator -1.8%, TRPML1 ag 2.7, TRPML1 blocker -7, Sfp PPTase inh 6%, TRPV1 PAM -19, ClpP mod -4.7% and Menin MLL FP FL 0.3.
`CN(Cc1cccnc1)C(=O)c1cc(S(=O)(=O)Nc2ccccc2F)ccc1Cl` gave PINK1 modulator 2.6%, TRPML1 ag -0.4, TRPML1 blocker 4, TRPV1 PAM 8 and ClpP mod -2.1%.
For Cc1ccc(OP(=O)(Nc2c(C)n(C)n(-c3ccccc3)c2=O)Oc2ccc(C)cc2)cc1 the results were PINK1 modulator -0.5%, TRPML1 ag 0.5, TRPML1 blocker -1, Sfp PPTase inh 6%, TRPV1 PAM 12, ClpP mod -0.8% and Menin MLL FP FL 2.0.
For C/C(Cc1ccccc1)=N\NC(=O)CNC(=O)c1ccc2c(c1)OCCO2 the results were PINK1 modulator 1.5%, TRPML1 ag 0.0, TRPML1 blocker 7, Sfp PPTase inh 9%, TRPV1 PAM -3, ClpP mod -0.3% and Menin MLL FP FL 4.2.
For COCc1c(C(=O)NCc2ccccc2CN2CCCC2)oc2ccccc12 the results were PINK1 modulator 1.4%, TRPML1 ag 1.6, TRPML1 blocker 0, TRPV1 PAM -15 and ClpP mod -2.3%.
For Cc1ccccc1C(=O)NC1CCN(CC(=O)NCc2cccs2)CC1 the results were PINK1 modulator -0.3%, TRPML1 ag 0.2, TRPML1 blocker -11, Sfp PPTase inh -2%, TRPV1 PAM 13 and Menin MLL FP FL -2.1.
For COCC(C)n1c(C)cc(C(=O)CN2c3cccc4cccc(c34)S2(=O)=O)c1C (stereo not given) the results were PINK1 modulator 0.4%, TRPML1 ag 2.0, TRPML1 blocker 5, TRPV1 PAM 4 and ClpP mod -22%.
For O=C(c1cnn(-c2ccccc2)c1)c1ccc2ccccc2c1O the results were PINK1 modulator 1.3%, TRPML1 ag 3.4, TRPML1 blocker 17, Sfp PPTase inh 23%, TRPV1 PAM 2, ClpP mod 0.6% and Menin MLL FP FL 2.4.
`COCCN1C(=O)N[C@@H](c2ccco2)C(C(C)=O)=C1C` gave PINK1 modulator 0.3%, TRPML1 ag -0.1, TRPML1 blocker 23, Sfp PPTase inh 7%&-2%, TRPV1 PAM -1, ClpP mod -3.7% and Menin MLL FP FL 1.7&-0.5.
`COc1cc(S(=O)(=O)N2CCCCC2)ccc1NC(C)=O` gave PINK1 modulator -8.3%[38.3 µM], TRPML1 ag 0.5, TRPML1 blocker 8, Sfp PPTase inh 18%, TRPV1 PAM 10, ClpP mod -2.6% and Menin MLL FP FL 2.7.
Screening CC(C)OC(=O)c1ccc(NC(=O)Cn2c(-c3nonc3N)nc3ccccc32)cc1 returned PINK1 modulator 7.2%, TRPML1 ag 1.2, TRPML1 blocker 32, Sfp PPTase inh 17%, TRPV1 PAM -7, ClpP mod -2.5% and Menin MLL FP FL 1.2.
O=C(c1cccc([N+](=O)[O-])c1)N1CCN(c2ccc(Nc3ccccc3)nn2)CC1 was read as PINK1 modulator 0.9%, TRPML1 ag 7.0, TRPML1 blocker -21 and ClpP mod -1.4%.
CCCCNC(=S)NNC(=O)c1csc2ccccc12 was read as PINK1 modulator inconclusive, TRPML1 ag 1.9, TRPML1 blocker 2, Sfp PPTase inh 10%, TRPV1 PAM 18, ClpP mod 5.2% and Menin MLL FP FL -2.0.
For Cc1ccc(S(=O)(=O)NCC(c2cccnc2)N2CCc3ccccc32)cc1 (stereo not given) the results were PINK1 modulator 1.5%, TRPML1 ag 2.0, TRPML1 blocker -9, Sfp PPTase inh -3%, TRPV1 PAM -5, ClpP mod -1.2% and Menin MLL FP FL 3.0.
Screening COc1ccc(CSc2nc3ccncc3n2Cc2nc(-c3ccc(OC)c(OC)c3)oc2C)cc1 returned PINK1 modulator 0.6%, TRPML1 ag 2.0, TRPML1 blocker 10 and ClpP mod inconclusive.

Reprinted from the part before: two entries, then new ones.
For Cc1ccc(S(=O)(=O)NCC(c2cccnc2)N2CCc3ccccc32)cc1 (stereo not given) the results were PINK1 modulator 1.5%, TRPML1 ag 2.0, TRPML1 blocker -9, Sfp PPTase inh -3%, TRPV1 PAM -5, ClpP mod -1.2% and Menin MLL FP FL 3.0.
Screening COc1ccc(CSc2nc3ccncc3n2Cc2nc(-c3ccc(OC)c(OC)c3)oc2C)cc1 returned PINK1 modulator 0.6%, TRPML1 ag 2.0, TRPML1 blocker 10 and ClpP mod inconclusive.
For CNC[C@@H]1Oc2cc(Br)ccc2S(=O)(=O)N([C@H](C)CO)C[C@@H]1C the results were PINK1 modulator 7.7%, TRPML1 ag 1.2, TRPML1 blocker -6 and ClpP mod 3.9%.
For O=C(COc1ccccc1[N+](=O)[O-])Nc1ccc(-c2nc3ccccc3s2)cc1 the results were PINK1 modulator 3.1%, TRPML1 ag -0.6, TRPML1 blocker 15 and ClpP mod -0.2%.
Screening Cc1noc(C)c1-c1nc(N(C)Cc2ccco2)c2ccccc2n1 returned PINK1 modulator 1.0%, Sfp PPTase inh 79µM* and Menin MLL FP FL 5.3.
Screening COc1ccc(-n2c(SCC(=O)c3ccc[nH]3)nnc2-c2ccccc2)cc1 returned PINK1 modulator 0.2%, TRPML1 ag 0.8, TRPML1 blocker 3, Sfp PPTase inh -2%, TRPV1 PAM -15, ClpP mod -3.5% and Menin MLL FP FL 5.3.
Screening CC(C)(C)OC(=O)CN1c2cccc3cccc(c23)S1(=O)=O returned PINK1 modulator 2.0%, TRPML1 ag 1.7, TRPML1 blocker -11, Sfp PPTase inh 12%, TRPV1 PAM 22, ClpP mod -22% and Menin MLL FP FL 8.5.
Screening CC(=O)Nc1ccc(S(=O)(=O)N(C)c2ccc(OCCOc3cccc(C)c3)cc2)cc1 returned PINK1 modulator 2.8%, TRPML1 ag 0.7, TRPML1 blocker 10 and ClpP mod 1.5%.
For Cc1noc(C)c1S(=O)(=O)Nc1ccc(C(=O)NC2CCCCCC2)cc1 the results were PINK1 modulator 0.9%, TRPML1 ag -0.3, TRPML1 blocker -4, Sfp PPTase inh 0%, TRPV1 PAM 3, ClpP mod -1.5% and Menin MLL FP FL 1.2.
Screening CCSc1nnc(NC(=O)C(C)(C(F)(F)F)C(F)(F)F)s1 returned PINK1 modulator 25µM*, TRPML1 ag 0.5, TRPML1 blocker 32, Sfp PPTase inh -5%, TRPV1 PAM -17, ClpP mod 0.2% and Menin MLL FP FL 3.2.
Screening O=C(NCc1ccccc1)NC1(C(=O)N2CCOCC2)CCCCC1 returned PINK1 modulator -0.5%, TRPML1 ag 0.0, TRPML1 blocker -4, Sfp PPTase inh 30%[activator], TRPV1 PAM 1, ClpP mod 0.6% and Menin MLL FP FL 0.4.
O=C(Cn1ncc(Cl)c(Cl)c1=O)c1ccc2c(c1)OCCO2 was read as PINK1 modulator -5.4%, TRPML1 ag 1.6, TRPML1 blocker -17 and ClpP mod -2.2%.
`COc1ccc(-n2nc(C(=O)Nc3ccccc3OC)c3c4ccccc4n(C)c3c2=O)cc1Cl` gave PINK1 modulator -0.4%, TRPML1 ag -0.2, TRPML1 blocker -2 and ClpP mod -6.2%.
Cn1cnc(S(=O)(=O)N2CCN(C(c3ccccc3)c3ccccc3)CC2)c1 was read as PINK1 modulator -1.6%, TRPML1 ag 0.6, TRPML1 blocker -6, Sfp PPTase inh -5%, TRPV1 PAM 11, ClpP mod -4.8% and Menin MLL FP FL -4.6.
For C=CCn1cnc2c(nnn2-c2ccc(Cl)cc2)c1=O the results were PINK1 modulator 0.2%, TRPML1 ag -1.3, TRPML1 blocker 21, Sfp PPTase inh 14%, TRPV1 PAM -4, ClpP mod -5.7% and Menin MLL FP FL -0.4.
`CNCC(O)C(O)C(O)C(O)CO` (stereo not given) gave PINK1 modulator -0.4%, Sfp PPTase inh 21%, TRPV1 PAM 0, ClpP mod -1.7% and Menin MLL FP FL 1.3.
COc1cccc(OC)c1OC(=O)c1ccccc1 was read as PINK1 modulator -1.3%, TRPML1 ag 1.7, TRPML1 blocker 6 and ClpP mod -1.3%.
`Cc1cc(S(=O)(=O)C(CNC(=O)COc2ccc(Cl)cc2)c2cccs2)ccc1F` (stereo not given) gave PINK1 modulator -1.0%, TRPML1 ag 0.0, TRPML1 blocker -24 and ClpP mod inconclusive.
`CCCC[C@]12Cc3c(ccc4ccccc34)C(O1)C1=C(O2)C(=O)c2ccccc2C1=O` gave Sfp PPTase inh 10%, TRPV1 PAM inactive and Menin MLL FP FL 4.0[11.7 µM].
`O=C(c1ccccc1)c1ccc(OCC(O)CNCc2ccc(Cl)cc2)cc1` (stereo not given) gave PINK1 modulator -3.5%, TRPML1 ag 0.9, TRPML1 blocker -12, Sfp PPTase inh 79µM*, TRPV1 PAM 10, ClpP mod 1.9% and Menin MLL FP FL 1.8.
`CCCN(C(=O)Cc1coc2cc(OC)ccc12)C1CCS(=O)(=O)C1` (stereo not given) gave PINK1 modulator 0.4%, TRPML1 ag 0.9, TRPML1 blocker 11 and ClpP mod 1.9%.
For CN(C)c1ccc(/C=N/O)cc1 the results were PINK1 modulator -1.7%, TRPML1 ag 0.0, TRPML1 blocker -18, Sfp PPTase inh 5%, TRPV1 PAM -4 and Menin MLL FP FL 2.7.
